Compound activity (PubChem BioAssay)
Rce1 inhib: yeast Ras-converting enzyme inhibition | calls only | AID 2563 | 290,000 compounds, 0.27% hits | Q03530 | yeast membranes, quenched prenylated peptide cleavage fluorescence;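 active means fall in fluorescence gain of 50% or more versus controls, with final raw signal at or below 3038400; inconclusive means same 50% fall but final raw signal above 3038400; inactive means fall in fluorescence gain under 50%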;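 further: plate controls were neutral control wells for no effect and wells lacking membranes for full effect; tested at 10 µM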
MT1-MMP act inh: inhibitors of human MT1-MMP activation. 360,000 compounds, 0.061% hits. HT1080 RFP-PRO-GFP cells, GFP/RFP ratio fluorescence, overnight; percent of plate control window, DMSO zero. GFP/RFP ratio change, % at 20 µM;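 active means GFP/RFP ratio change of at least 30% with cell ATP level not reduced by more than half and red fluorescence within 50% of control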; further: strong numbers were not always called active
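system = RFP-PRO-GFP reporter HT1080 cells | dosing = 20 µM single dose, 1% DMSO | timing = overnight cell settling, then overnight compound exposure, 37 °C, 5% CO2 | read-out basis = GFP/RFP fluorescence ratio | controls = DMSO and RFP-L50D-GFP cell wells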
Env fusion inh: blocks HIV Env-driven cell-cell fusion | HeLa-JRFL Env/CEM21 cell fusion, luciferase | inhibition, % at 12.3 µM | 360,000 compounds, 1.1% hits;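 active means mean replicate inhibition score of at least 50 and every replicate individually at or above 50; inconclusive means only one of the two criteria met; inactive means mean below 50 and not all replicates reaching 50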;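 further: 0% = plate neutral controls and 100% = maraviroc near 300 nM; one replicate is shown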
CSC inhib: blocks cancer stem cells; inhibition, % at 7.5 µM; cancer stem cell-like cells viability, luminescence; AID 2717; 300,000 compounds, 1.1% hits;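 active means mean at 75% or more and at least half the replicates too; inconclusive means mean and replicates disagree; tested in HMLE shEcad cells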;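 further: 0% = median of negative and 100% = median of positive control wells; the first replicate is given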
eIF4H FP inh: inhibitors of RNA binding by human eIF4H. eIF4H fluorescence polarization binding assay. inhibition, % at 35 µM. 290,000 compounds, 0.94% hits;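 active means 50% or more with normal probe brightness, or confirmed in later tests; inconclusive means above 50% with abnormal brightness, or retests that disagree; inactive means below 50% or failed in later tests; about a fifth of its hits are not listed in these tables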;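 further: calls also rest on retests at 20 µM and on dose response follow-up; 0% = protein and probe with vehicle and 100% = probe without protein; strong numbers were not always called active; many hits fall short of the cut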
PABP polyA inh: PABP-poly(A) binding inhibition; inhibition, % at 35 µM; 290,000 compounds, 1% hits; PABP-poly(A) RNA binding, fluorescence polarization; P11940; AID 2014;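 active means 50% or more with normal probe brightness, or confirmed in later tests; inconclusive means above 50% with abnormal brightness, or retests that disagree; inactive means below 50% or failed in later tests; about a fifth of its hits are not listed in these tables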;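 further: calls also rest on retests at 20 µM and on dose response follow-up; controls were probe without protein and protein plus probe with vehicle; some compounds called inactive have numbers as strong as hits; many hits fall short of the cut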
Target sequence (P11940 whole entry, looked up): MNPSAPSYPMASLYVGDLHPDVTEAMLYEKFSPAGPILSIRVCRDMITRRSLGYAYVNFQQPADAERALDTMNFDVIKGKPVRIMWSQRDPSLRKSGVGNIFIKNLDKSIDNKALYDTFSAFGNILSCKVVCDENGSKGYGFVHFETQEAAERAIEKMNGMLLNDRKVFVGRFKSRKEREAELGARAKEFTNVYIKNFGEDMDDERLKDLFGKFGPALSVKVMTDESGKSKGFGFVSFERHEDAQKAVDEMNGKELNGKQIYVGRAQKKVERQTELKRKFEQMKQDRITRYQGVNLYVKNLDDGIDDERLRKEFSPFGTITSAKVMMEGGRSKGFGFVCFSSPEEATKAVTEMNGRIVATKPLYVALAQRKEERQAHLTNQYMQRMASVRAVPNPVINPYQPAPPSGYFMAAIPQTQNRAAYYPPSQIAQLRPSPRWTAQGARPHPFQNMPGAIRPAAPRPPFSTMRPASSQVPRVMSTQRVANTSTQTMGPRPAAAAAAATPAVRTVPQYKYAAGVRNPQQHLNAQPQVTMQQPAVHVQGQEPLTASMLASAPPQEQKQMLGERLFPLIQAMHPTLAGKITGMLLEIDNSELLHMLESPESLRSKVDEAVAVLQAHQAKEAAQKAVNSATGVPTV
Yeast UUG start: modulators of start codon recognition fidelity in yeast; S. cerevisiae UUG-firefly luciferase reporter, luminescence/redox ratio; activity score, % at 18.7 µM; 350,000 compounds, 0.13% hits; AID 602363;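 active means replicate mean at a twofold rise or more, about +100% in these data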;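 further: firefly luciferase made from a UUG start codon reports start codon fidelity; reporter light over untreated wells divided by growth signal over untreated wells; some hits fall short of that in this replicate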
MT1-MMP act inh RFP: also measured in MT1-MMP act inh; calls as there; RFP signal change, %; measured here: RFP expression control read;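 0 = vehicle wells; hits needed this value within 50% of zero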
Active calls of the source: *; i = inactive; ? = inconclusive; . = not tested or not shown; ! = not active in a repeat.

SMILES | Rce1 inhib | MT1-MMP act inh | MT1-MMP act inh RFP | Env fusion inh | CSC inhib | eIF4H FP inh | PABP polyA inh | Yeast UUG start
O=C(Nc1ccc(S(=O)(=O)N2CCCCCC2)cc1)c1c(F)cccc1F | i | . | . | -239 | 5 | 11 | -4 | 5
C(=C\c1ccccc1)/CSc1nc2ncccc2[nH]1 | i | 1 | -2 | -17 | 4 | 0 | 1 | -21
FC(F)(F)C1=CC(c2ccc(Br)cc2)=NCCN1 | i | 1 | -1 | . | -4 | -4 | -8 | -12
CC(C(=O)Nc1cccc([N+](=O)[O-])c1)[n+]1ccccc1 (configuration not stated) | i | -2 | 2 | 3 | -9 | 1 | -4 | -7
COc1ccc(NC(=O)C2CC(=O)NC(Nc3cccc(C)c3)=N2)cc1 (configuration not stated) | i | -3 | 0 | . | -1 | -2 | -7 | -6
CN(C)c1ccc(C2(O)C(=O)c3ccccc3C2=O)cc1 | i | 4 | 6 | -9 | -13 | 9 | 0 | -11
COc1ccc(S(=O)(=O)N(C)CC(=O)N2CCOCC2)cc1 | i | -2 | 1 | -40 | 3 | -5 | -3 | -15
O=C(/C=C/c1ccc(Cl)cc1Cl)c1ccc[nH]1 | i | -7 | -2 | -76 | 27 | 4 | 12 | -18
CCOc1cc(C)c(Cl)cc1S(=O)(=O)n1cnc2ccccc21 | i | -4 | 7 | -43 | 1 | -5 | -4 | -20
COc1ccc(CCC(=O)OCC(=O)Nc2ccc3[nH]c(=O)[nH]c3c2)cc1 | i | 3 | 4 | 3 | -10 | . | . | .
CS(=O)(=O)N1CCc2cc(-c3csc(NC(=O)C(c4ccccc4)c4ccccc4)n3)ccc21 | i | 2 | -10 | . | 9 | -15 | 4 | -20
CC(=O)c1cc(C#N)c(SCc2ccncc2)nc1C | i | -11 | -5 | . | -7 | -3 | 3 | -12
CCN1CCN(c2ccc(NC(=O)c3cccc(S(=O)(=O)N4CCCC4)c3)cc2)CC1 | . | 1 | 2 | 12 | 6 | . | . | -9
Cc1ccc(S(=O)(=O)Nc2ccc(C(=O)Nc3ccncc3)cc2)cc1 | i | -3 | -3 | 6 | 62 | -3 | 0 | .
O=C(CNS(=O)(=O)c1cccc(C(F)(F)F)c1)NC1CCCCCC1 | . | 0 | -4 | 4 | 2 | . | . | -11
COc1ccc(C(=O)N2CCN(c3ccc([N+](=O)[O-])c(-n4nc(C)cc4C)c3)CC2)cc1 | i | 16 | 1 | -22 | -3 | -5 | -10 | -1
Cc1ccccc1C(=O)NCC(=O)Nc1ccc(C)c(S(=O)(=O)N2CCCCCC2)c1 | i | 4 | -13 | 31 | 11 | -10 | -6 | 16
C/C(=C(/CCO)SSCC1CCCO1)N(C=O)Cc1cnc(C)nc1N (configuration not stated) | . | -1 | 1 | 4 | -17 | . | . | -8
COc1ccc(C(=O)n2nc(-c3ccccc3)nc2SC)cc1 | i | 13 | 1 | . | . | 4 | -2 | 14
COc1ccccc1OCC(=O)Nc1ccc(S(=O)(=O)N2CCN(C)CC2)cc1 | i | 2 | 4 | 9 | -13 | -15 | -10 | 4
O=C(CN1CCOCC1)Nc1ccc(Oc2ccc(NC(=O)CN3CCOCC3)cc2)cc1 | i | 2 | 2 | -4 | -5 | 4 | -11 | -18
Cc1cc(CNC(=O)[C@H](C)[C@@H]2C[C@@]2(C)[C@@H](NC(=O)OCc2ccccc2)c2ccccc2)nn1C | . | 2 | 4 | -17 | -7 | 0 | 2 | -15
Cc1ccc2nc(C)c(C(=O)N/N=C/c3cccs3)n2c1 | i | 0 | 1 | -19 | -10 | 0 | -7 | .
COc1ccc(NS(=O)(=O)c2ccc(NC(=O)c3ccccc3)cc2)nn1 | i | 4 | 5 | 2 | 7 | -1 | 8 | .
N=C(N)SCc1ncccc1O | i | -10 | -5 | -5 | -16 | 22 | 23 | -14

Filtered by structure: the entries above with a CF3 group
SMILES | Rce1 inhib | MT1-MMP act inh | MT1-MMP act inh RFP | Env fusion inh | CSC inhib | eIF4H FP inh | PABP polyA inh | Yeast UUG start
FC(F)(F)C1=CC(c2ccc(Br)cc2)=NCCN1 | i | 1 | -1 | . | -4 | -4 | -8 | -12
O=C(CNS(=O)(=O)c1cccc(C(F)(F)F)c1)NC1CCCCCC1 | . | 0 | -4 | 4 | 2 | . | . | -11

Other records:
SMILES | Rce1 inhib | MT1-MMP act inh | MT1-MMP act inh RFP | Env fusion inh | CSC inhib | eIF4H FP inh | PABP polyA inh | Yeast UUG start
CCN(C(=O)COC(=O)c1oc2ccccc2c1C)c1c(N)n(Cc2ccccc2)c(=O)[nH]c1=O | . | -1 | -1 | . | -5 | . | . | -6
Nc1nc(CN2CCCCC2)cs1 | i | -3 | 5 | -116 | -9 | 7 | 4 | -3
CCOC(=O)c1c(=O)n(O)c2ccc(OC)cc2[n+]1[O-] | . | -30 | 8 | . | 6 | ? | ? | .
CN1CCCN(C(=O)CC2(CC(=O)O)CCCCC2)CC1 | i | 2 | 4 | 3 | 1 | -4 | 11 | -17
COc1cc(/C=N\Nc2nc(-c3ccc(C)cc3)c(NC(C)=O)s2)ccc1O | i | -2 | -1 | 4 | -3 | -8 | 3 | .
CC(=O)NC12CC3CC(C)(C1)CC(NC(C)=O)(C3)C2 | i | 3 | -2 | . | -8 | -5 | 2 | -11
COc1ccc(NCc2cc3cc(OC)ccc3[nH]c2=O)cc1 | i | -4 | 6 | . | -9 | -6 | 40 | -12
COc1ccccc1-n1cc(C(=O)NCC(=O)N2CCN(c3ccccn3)CC2)c2ccccc2c1=O | i | 0 | 1 | -25 | 6 | 2 | -3 | .
Cc1cccn2c(=O)c3cc(C(=O)NCc4ccccc4)c(=N)n(CCCN4CCOCC4)c3nc12 | . | 10 | 3 | -1 | . | . | . | 2
CCOCCCNCc1cc(Cl)ccc1OCC | i | -1 | -1 | -4 | -1 | -10 | -9 | -21
Cc1ccc(NS(=O)(=O)c2ccc(-c3coc(C)n3)cc2)c(Cl)c1 | . | 1 | -4 | 6 | . | . | . | -5
Clc1ccccc1CN1CCN(/N=C/c2ccncc2)CC1 | i | -3 | -8 | 34 | . | -2 | -4 | .
O=[N+]([O-])c1cccc(-c2cc3ccccc3[nH]2)c1 | i | 3 | -10 | -59 | 2 | -2 | 3 | -8
COc1ccccc1/C=N/NC(=O)c1c(-c2ccccc2)noc1C | i | 3 | 9 | 11 | 21 | -4 | -2 | -6
Cc1noc(C)c1COC(=O)c1cccc(N(C)C)c1 | i | 5 | 0 | 4 | 6 | -2 | 0 | .
Cc1ccn2cc(CSc3ccccc3N)nc2c1 | i | . | . | -44 | -2 | 1 | 3 | -28
Cn1ccc2c(-c3ccc(C(=O)O)cc3)cc3c(c21)C1CCC3O1 (configuration not stated) | . | 4 | 6 | 11 | . | . | . | 3
COc1ccc(C(CCN2CCCC(C)C2)c2c(OC)cc(OC)c3c(C)cc(=O)oc23)cc1 (configuration not stated) | i | 1 | 0 | -55 | -1 | -8 | -4 | 2
O=C(NCc1cccnc1)Nc1ccc2c(c1)OCO2 | i | -1 | 0 | -11 | -14 | 0 | -12 | .
CCN(CC)S(=O)(=O)c1ccc2c(c1)nc(CCC(=O)OCC(=O)Nc1cc(Cl)cc(Cl)c1)n2C | i | 6 | 6 | -89 | -8 | 1 | 1 | -17
N#Cc1ccc(Oc2ccc(C(F)(F)F)cc2NC(=O)c2ccc(F)cc2)cc1 | i | -2 | -3 | 19 | 2 | -14 | 3 | -6
COc1cccc(C(C)N(C)Cc2nc(-c3ccoc3)oc2C)c1 (configuration not stated) | i | 2 | 4 | . | -5 | -1 | 4 | .
CCOc1ccc(-c2cc(C)n3nc(C(N)=O)cc3n2)cc1 | i | -4 | 0 | . | -8 | 4 | 10 | 1
C#CCN(C[C@H]1[C@H](OC(=O)NCc2ccccc2)[C@H](OC(=O)NCc2ccccc2)C[C@@H](C(=O)OC)[C@H]1C(=O)OC)S(=O)(=O)c1ccc(C)cc1 | . | -4 | -6 | -53 | . | . | . | -3
Cc1nn(Cc2cccc(C(N)=O)c2)c(C)c1Br | . | 2 | 0 | -8 | -1 | -6 | 1 | .

Next section:
SMILES | Rce1 inhib | MT1-MMP act inh | MT1-MMP act inh RFP | Env fusion inh | CSC inhib | eIF4H FP inh | PABP polyA inh | Yeast UUG start
O=C(CNS(=O)(=O)c1ccc(F)c(Cl)c1)N1CCCC1 | i | -2 | 0 | 0 | -10 | 1 | -2 | -1
Cc1ccc2c(c1)c1c(n2CC(O)CNC(CO)(CO)CO)CCCC1 (configuration not stated) | i | -6 | 8 | 35 | -13 | 28 | 24 | -4
C[C@H](CO)N1C[C@H](C)[C@@H](CN(C)C(=O)NC2CCCCC2)Oc2c(cccc2N(C)C)C1=O | . | -2 | 0 | 85*! | -19 | . | . | 17
CCOc1ccc(C(=O)NCCO)cc1 | i | 2 | 5 | 3 | . | -6 | -8 | .
Cc1cccc(Nc2nc(NCc3ccco3)nc(N)c2[N+](=O)[O-])c1 | i | -1 | -5 | 17 | -4 | 1 | 8 | -15
Cc1cccc(CCNC(=O)Cn2ncc3c([nH]c4ccc(C)cc43)c2=O)c1 | i | 5 | 3 | 10 | -13 | 0 | 3 | 91
COc1cc(/C=N/NS(=O)(=O)c2ccc(C)c([N+](=O)[O-])c2)cc([N+](=O)[O-])c1O | i | 8 | 7 | 0 | -7 | 14 | 21 | -22
COCCN(C(=O)CCc1nnc(CCc2c[nH]c3ccccc23)o1)C(C)C | i | 5 | 6 | 8 | -7 | -3 | 7 | .
Cc1nccn1CCc1nc(N)nc(N)n1 | i | -3 | 4 | -72 | 0 | 6 | -1 | -26
C#Cc1ccc([C@@H]2C=C(C(=O)Nc3ccccc3)O[C@H](OCC)[C@H]2CCCO)cc1 | i | -4 | -7 | -7 | 5 | -4 | -4 | -7
CCOC(=O)C1CCCN(CC(O)COc2cccc(C)c2)C1 (configuration not stated) | i | 4 | 7 | . | -5 | -6 | -14 | .
COc1ccc(CN2CCN(Cc3c[nH]c4ccccc34)CC2)cc1OC | . | -2 | 0 | 6 | . | . | . | -3
CN(C(=O)COC(=O)CSc1ccc([N+](=O)[O-])cc1)C1CCS(=O)(=O)C1 (configuration not stated) | i | 3 | 6 | -1 | -2 | . | . | -20
COc1ccccc1OCc1nnc(SCC(=O)c2cc(Cl)ccc2OC)o1 | i | 0 | -5 | 3 | 23 | -6 | -11 | -9
Nc1ccc(-c2nc3ccc(-c4nc5ccccc5o4)cc3[nH]2)cc1 | i | 8 | -10 | . | -13 | -1 | 3 | -3
Cn1c(=O)c2[nH]c(N3CCOCC3)nc2n(-c2ccccc2)c1=O | i | 2 | -3 | . | -6 | -3 | -5 | -5
CC1(CCl)N([O-])C2=C(CCCC2)[N+]1=O (configuration not stated) | i | -2 | 2 | -2 | -16 | 13 | -5 | .
CCCCCC1CC(CC(=O)NC(=S)Nc2ccccc2Cl)C(=O)O1 (configuration not stated) | i | -3 | 2 | -8 | -2 | -4 | 6 | -17
CCC(=O)Nc1ccc(Nc2ccccc2)cc1 | i | 4 | 1 | -124 | -3 | -1 | 6 | -4
Cc1cc(C(C2C(=O)CC(C)(C)CC2=O)C2C(=O)CC(C)(C)CC2=O)cc(C)c1OC(F)F | i | -3 | -1 | 8 | -16 | 3 | 25 | 3
CCCCc1ccc(CC2S/C(=C(\C#N)C(=O)N3CCOCC3)N(c3ccccc3)C2=O)cc1 (configuration not stated) | i | -153 | 2 | -71 | -4 | -15 | -3 | -3
O=C(CCNC(=O)c1ccc(Cl)cc1)Nc1ccccc1N1CCCCC1 | i | 3 | 1 | 16 | -8 | . | . | -7
CCCS(=O)(=O)c1cn2cccc(N)c2c1S(=O)(=O)CCC | i | -32 | 9 | . | 2 | ? | ? | -6

These rows are one share of the data; the hit share may differ from the screen's.
